High-throughput results (PubChem)
GCN5L2 inh – qHTS Assay for Inhibitors of GCN5L2 | GCN5L2 HAT assay, ThioGlo1 CoA-SH fluorescence | Potency, µM (doses to about 58.9 µM), for the others: at the top dose activity change, negative = inhibition, actives largely listed as inhibitors | actives 0.21% (n = 390,000)
Target sequence (Q92830 whole entry, looked up): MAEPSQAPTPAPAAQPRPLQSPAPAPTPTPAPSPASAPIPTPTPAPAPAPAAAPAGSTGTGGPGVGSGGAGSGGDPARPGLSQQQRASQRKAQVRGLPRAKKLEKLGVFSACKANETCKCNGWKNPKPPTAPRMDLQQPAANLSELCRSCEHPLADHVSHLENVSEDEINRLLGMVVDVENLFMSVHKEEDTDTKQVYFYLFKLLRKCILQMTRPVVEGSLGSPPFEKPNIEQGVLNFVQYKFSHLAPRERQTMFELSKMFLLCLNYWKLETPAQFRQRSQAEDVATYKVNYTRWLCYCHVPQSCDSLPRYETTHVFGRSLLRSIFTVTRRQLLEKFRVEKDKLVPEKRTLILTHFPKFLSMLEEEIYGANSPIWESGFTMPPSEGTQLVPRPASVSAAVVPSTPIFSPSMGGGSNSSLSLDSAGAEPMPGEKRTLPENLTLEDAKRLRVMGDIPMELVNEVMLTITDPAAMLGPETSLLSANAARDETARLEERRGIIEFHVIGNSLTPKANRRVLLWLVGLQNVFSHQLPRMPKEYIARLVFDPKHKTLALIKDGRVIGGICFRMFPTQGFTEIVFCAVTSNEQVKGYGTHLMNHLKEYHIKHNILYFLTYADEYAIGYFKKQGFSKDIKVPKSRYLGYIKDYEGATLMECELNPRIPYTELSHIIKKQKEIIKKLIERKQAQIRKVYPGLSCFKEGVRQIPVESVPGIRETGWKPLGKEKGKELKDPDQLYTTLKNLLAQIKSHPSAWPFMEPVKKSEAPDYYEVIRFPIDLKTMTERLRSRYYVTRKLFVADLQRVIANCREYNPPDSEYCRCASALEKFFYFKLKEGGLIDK
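Enzyme at 20nM final was mixed with library compounds for 15 min at room temperature. Peptide H3(1-25) at 75uM, acetyl-CoA at 70uM and ThioGlo1 at 50uM were then added. Plates were read immediately and after 20 min (Ex340nm/Em540nm).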
TDP1 cell CPT – qHTS for Inhibitors of human tyrosyl-DNA phosphodiesterase 1 (TDP1): qHTS in cells in presence of CPT | actives 12% (n = 420,000) | Potency, µM (titrated, usually from 46.2 µM), for inactives: at the highest dose activity change, negative = growth inhibition, hits mostly inhibitors | AID 686979, 2013 | chicken DT40 Tdp1-/-;hTDP1 cells + 20 nM CPT, ATP luminescence, 48 h; further: nearly all actives have a fitted effect of over 55% in size
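Chicken DT40 Tdp1-/- cells complemented with human TDP1, 400 cells/well, exposed to compounds plus 20 nM camptothecin for at least 48 h at 37 C; viability read as ATP content by CellTiter-Glo luminescence.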
The depositor's hits bear a star; ? = inconclusive; . = no result given; & = joins results of further samples. The call rests on the fitted dose curve; in most records, active means well fitted curve in the direction sought with a large enough effect; inconclusive means small, poorly fitted or top-dose-only effect, or another doubt; inactive means no such curve, though single readings can be large; an effect the other way counts as inactive or inconclusive. On the % scale 0 is the no-effect control and ±100 the full control effect; potency means the concentration at half of the fitted maximal effect. The list is partial; most or all hits stand in other tables.

SMILES	GCN5L2 inh	TDP1 cell CPT
O=C(CCc1nc2ccccc2s1)c1ccccc1	-5%	9%
Cc1ccc(NS(=O)(=O)Cc2ccccc2)nc1	0%	-3%
CC(C)(C)OC(=O)N1CC2Cc3[nH]c(=O)ccc3C(C2)C1 (stereo unspecified)	-14%	1%
O=C(O)COc1ccccc1/C=C1\SC(=O)N(Cc2ccc(F)cc2)C1=O	-7%	21%
CCn1c(C(C)NC(=O)c2ccc(OC)c(OC)c2)nc2ccccc21 (stereo unspecified)	0%	-9%
CCOc1ccc(N(CC)S(=O)(=O)c2ccc3c(c2)n(C)c(=O)c(=O)n3C)cc1	0%	-1%
c1ccc(-c2nc(-c3ccc(-c4ccon4)s3)no2)cc1	-1%	7%
O=C(CSc1cccc[n+]1[O-])N1CCCCCC1	-1%	-7%
COC(=O)c1ccc(NC2(C#N)C(=O)Nc3ccccc32)cc1 (stereo unspecified)	-12%	?
O=C(CSc1nc2[nH]c(=O)cc(O)c2s1)Nc1cccc(Br)c1	-13%	-9%
COCCCNC(=O)c1nn(-c2ccc(C)cc2)nc1CO	2%	3%
CCOc1ccc(CNc2nnnn2C)cc1	-5%	5%
N#Cc1ccc(-c2csc(NC3=NCCCCC3)n2)cc1	-7%	?
N#CCCN/N=C(\Cc1nc2ccccc2[nH]1)c1ccccc1	-15%	?
Cc1ccc(NC(=O)CC(N)=S)cc1	-11%	3%
Cc1ccc(-c2nn(C)c(=O)c3ccccc23)cc1CNC(=O)/C=C/c1ccccc1	22%	-24%
CC(C)(C)c1ccc(Cn2nnc3c(=O)[nH]c(C4CCCN(C(=O)c5ccco5)C4)nc32)cc1 (stereo unspecified)	-5%	?
Cc1ccc(CNC(=O)c2cccc(S(C)(=O)=O)c2)cc1	-7%	-13%
CCN(CC)S(=O)(=O)c1ccc2[nH]cc(C(=O)NCCc3ccccc3)c(=O)c2c1	-3%&-4%	23µM*
O=C(COc1cc2oc(=O)c3c(c2cc1Cl)CCCC3)NCC1CCC(C(=O)O)CC1 (stereo unspecified)	-23%	7%
O=S(=O)(c1ccccc1)c1nc(-c2ccc(F)cc2)oc1N1CCOCC1	-1%&-11%	?
Cc1c(NC(=O)CS(=O)(=O)c2ccccc2)c(=O)n(-c2ccccc2)n1C	-11%	11%
C=CCOc1ccc(/C=N/NC(=O)CN2CCOCC2)cc1OCC	-1%	-2%
O=C(Nc1cccc([N+](=O)[O-])c1)c1ccccc1	2%	-14%
COc1ccc(CNC2CCSc3ccccc32)cc1OC (stereo unspecified)	2%	?
Cc1ccccc1C(=O)NNC(=O)C(=O)N1CCCCC1	0%	12%
O=C(NCCO)c1ccc(-c2nnc(N3CCOCC3)c3ccccc23)cc1	-6%	-2%
CCOC(=O)N1CCN(S(=O)(=O)Cc2ccccc2)CC1	-7%	2%
Cc1cccc(C)c1NC(=O)CNC(=O)c1ccc2c(c1)OCCO2	0%	4%
CC(C(=O)NCc1cccnc1)N1C(=O)c2ccccc2C1=O (stereo unspecified)	-5%	-8%
Cc1ccc(CNC(=O)Cn2ccn(-c3cc(C)cc(C)c3)c(=O)c2=O)cc1	1%	-2%
COc1ccc(-c2csc3ncnc(N4CCN(S(=O)(=O)c5cccc(C(F)(F)F)c5)CC4)c23)cc1	1%	?
Cc1cccc(CN2CCc3c(OCC(=O)N4CCCc5ccccc54)cccc3C2=O)c1	-11%	4.6µM*
CC1CCCCC12NC(=O)N(CC(=O)N1CCc3ccccc31)C2=O (stereo unspecified)	0%	-14%
COc1cccc(NC(=O)c2nc3ncccn3n2)c1	.	3%
COc1ccc(S(=O)(=O)N2CCN(c3ncnc4c(-c5ccccc5)nsc34)CC2)cc1	2%	16µM*
CC(OC(=O)c1cccs1)C(=O)Nc1nc(-c2ccccc2)cs1 (stereo unspecified)	-2%	?
O=C(/C=C/c1cccc([N+](=O)[O-])c1)N1CCN(S(=O)(=O)c2cccs2)CC1	1%	-12%
COc1ccc(OC)c(NC(=O)CN2C(=O)c3ccccc3Sc3ccc(C(=O)N4CCCC4)cc32)c1	-30%	-18%
CC(C)c1cc(C(=O)NCc2ccc(F)cc2)no1	-5%	1%
O=C(NCCN1CCOCC1)C(=O)NCC1OCCN1C(=O)c1ccc(Cl)cc1 (stereo unspecified)	-1%	-18%
C=CCOC(=O)C(C#N)c1nc2ccccc2nc1N1CCCC1 (stereo unspecified)	-11%	-6%
CN(C)C(=O)N1CCN(S(=O)(=O)c2ccc3ccccc3c2)CC1	-23%	10%
CCOP(=O)(OCC)C(NC(=O)Nc1ccc(Cl)c(Cl)c1)C(N)=O (stereo unspecified)	1%	1%
CCCc1cc(C(=O)Nc2cc(OC)ccc2OC)cs1	-7%	-11%
O=C(NCc1ccco1)C(=O)NCC1OCCCN1S(=O)(=O)c1ccccc1 (stereo unspecified)	-3%	5%
Oc1c(Br)cc(Br)cc1C=NCc1ccccc1	-29%	?
Cc1nc(SCC(=O)NCc2ccc3c(c2)OCO3)nc(C)c1C	-9%	-4%
O=C(NCCc1ccc(F)cc1)c1ccc2c(=O)n3c(nc2c1)CCC3	-1%	?
COC(=O)CCn1nnc(-c2cccs2)n1	-10%	-14%
CCOc1ccccc1C(=O)N(Cc1ccccc1F)C1CCS(=O)(=O)C1 (stereo unspecified)	2%	0%
Cn1c(=O)c2c(nc(CN3CCc4ccccc4C3)n2CCCO)n(C)c1=O	-4%	-15%
CC(=O)Nc1ccc(S(=O)(=O)N(C)c2nc3ccccc3nc2Cl)cc1	-3%	-28%
Cc1ccc(NS(=O)(=O)c2ccc(C(=O)N3CC(C)CC(C)C3)cc2)cc1 (stereo unspecified)	-11%	21µM*
CCn1c(C)nc2cc(C(=O)NNC(=O)Nc3ccc(Cl)cc3)ccc21	-6%	-1%
COCCCNCCCCOc1ccc(C)cc1[N+](=O)[O-]	-3%	0%
CC1CCN(c2cc(N)c(Cl)cc2[N+](=O)[O-])CC1	-14%	-3%
COc1ccc(S(=O)(=O)N2CCC(C(=O)NCc3ccc(C)cc3)CC2)cc1	-2%	0%
COc1ccc([C@H]2CC(=O)C=C(c3ccc4c(c3)OCCO4)C2)cc1	-5%	3%
Cc1cccc(C(=O)NCC(=O)N2CCC2)c1	1%	-17%

Further records follow.
SMILES	GCN5L2 inh	TDP1 cell CPT
Cc1cc2oc(=O)cc(Cn3ccnc3)c2cc1C	0%	8%
COc1ccc(OC)c(NC(=O)c2cc(-c3cc(C)c(C)cc3O)n[nH]2)c1	-1%	0%
COc1ccc(CNC(=O)[C@H](C)NC(=O)N2CCn3c2nc2ccccc23)cc1	-1%	-25%
COc1cccc(NC(=O)CSc2ncnc3c2cnn3Cc2ccccc2)c1	-4%	?
N#CC1(C#N)COC23CCCCC2C1(C#N)C(=N)O3 (stereo unspecified)	-8%	5.8µM*
CC(C)n1c(SC2C(=O)CC(C)(C)CC2=O)nc2c1c(=O)n(C)c(=O)n2C	1%	0%
Cc1cc(-c2nnc(-c3cccc(C(F)(F)F)c3)o2)no1	-7%	16%
Cc1cccc(OCC(O)CN2CCN(c3ccccn3)CC2)c1C (stereo unspecified)	-4%	-13%
COC(=O)c1cccc(N2C(=O)C3C4C=CC(CC4)C3C2=O)c1 (stereo unspecified)	3%	6%
O=C(O)CCC(=O)N1CCN(c2nc(-c3ccccc3Cl)c3cc(Br)ccc3n2)CC1	?	-8%
CCc1nc2scc(-c3cccs3)c2c(=O)o1	-7%	-10%
CCOc1ccc(NS(=O)(=O)c2ccc(C(=O)NC3CCC(O)CC3)cc2)cc1 (stereo unspecified)	5%	-26%
O=S(=O)(CCN1CCOCC1)c1ccccc1	1%	-3%
O=C(COc1ccc(F)cc1F)N1CCCCCCC1	-6%	-5%
CC1CCC(Nc2nnnn2-c2ccccc2)CC1 (stereo unspecified)	-6%	-29%
O=C(N=C1c2ccccc2CN1c1cccc(Cl)c1)c1cccnc1	-2%	?
O=C(NCc1cccnc1)c1cccc(Cl)c1	4%	4%
COc1ccc(S(=O)(=O)NC(Cc2ccccc2)C(=O)O)cc1 (stereo unspecified)	7%	8%
CCN(CC)S(=O)(=O)c1ccc2c(c1)c(=O)c(C(=O)N1CCOCC1)cn2C	-3%	-8%
CCC(CC)C(=O)Nc1ccccc1-n1cccc1	-4%	-5%
COc1ccc(-c2c3c(=O)n(C)c(=O)n(C)c3cn2Cc2ccccn2)cc1	-4%	-27%
Cc1c(C(=O)NN)nc2ccccn12	-4%	-4%
CN(C)N1C(N)=C(C#N)C(c2ccccc2F)C2=C1CC(C)(C)CC2=O (stereo unspecified)	6%	-1%
CCOC(=O)c1cnn(-c2ncnc3sc4c(c23)CCC4)c1N	-4%	-22%
CC(NC(=O)Cc1ccccc1)C(=O)O (stereo unspecified)	-29%	-25%
COc1ccc(NC(=O)Nc2cc(C)ccc2F)cc1	?	3%
COC(=O)c1ccc2c(C)c(C3(O)CCCCC3)[nH]c2c1	-25%	?
C=CCn1c(=O)c2c(nc(-c3ccc(S(=O)(=O)O)cc3)n2C)n(C)c1=O	?	1%&8%
CC(=O)OCCCCON1C(=O)c2ccccc2C1=O	-4%	1%
COC(=O)CN(c1ccc(F)cc1)S(=O)(=O)c1ccc2c(c1)OCCO2	-3%	-22%
COc1ccc(NS(=O)(=O)c2cccc(C(=O)NNC(=O)c3ccccc3OC)c2)cc1	-15%	-23%
COc1ccc(O)c(C(=O)c2cnc3onc(C(C)C)c3c2)c1	0%	-8%
Cc1ccc2nc(NC(=O)CSCC(=O)Nc3cc(C)on3)sc2c1	-6%	-16%
COc1cc(Cn2cnnn2)ccc1O	6%	-12%
CN(CCC#N)C(=O)COC(=O)/C=C/c1ccc2c(c1)OCO2	-9%	0%
CCn1c(C)c(C)c2cc(C(=O)NCCCN3CCN(C)CC3)ccc21	-5%	2%
CC(C)c1ccc(S(=O)(=O)N2CCN(C(=O)n3ccnc3)CC2)cc1	1%	?
COc1cccc(CNC(=O)COC(=O)c2c(NC(C)=O)sc(C)c2C)c1	1%	-28%
COc1cc2ncnc(NCc3ccc(C)o3)c2cc1OC	-6%	?
COc1cc(/C=N/NC(=O)c2cccc(S(=O)(=O)N3CCCC3)c2)cc(OC)c1O	-7%	-21%
Cc1ccc(/C=C(\C#N)C(=O)Nc2cccc(C)n2)cc1	-1%	-9%
Cc1ccc(NS(=O)(=O)c2ccc3nc(-c4ccccc4)[nH]c3c2)c(Br)c1	-3%	15µM*
CN1CC(=O)N(C)c2ncn(Cc3ccccc3)c2C1=O	-1%	-2%
CC1CCN(C(=O)c2cnn(-c3cccc(Cl)c3)c2C2CCN(C(=O)OC(C)(C)C)CC2)CC1	7%	21µM*
CC(=O)c1sc(NC(=O)c2cc3c(C)nn(-c4ccccc4)c3s2)nc1C	0%	-10%
O=C(NCCn1ccc2ccccc21)C1CCCCC1	-2%	-12%
